Screening results deposited in PubChem BioAssay by National Center for Advancing Translational Sciences (NCATS).
D2 potentiator: Beta-Arrestin HTS for Positive Allosteric Modulators of the Human D2 Dopamine Receptor: Potentiators. actives 0.23% (n = 360,000). potentiation, % (test concentration not listed). DiscoveRx D2 beta-arrestin cells, luminescence, 90 min; 100% = 57 uM dopamine signal. D(2) dopamine receptor (Homo sapiens), P14416; active = potentiation of 50% or more; inconclusive = 30% to 50%; inactive = 30% or less;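 further: compound concentration not given in the record; tested on top of an EC20 dose of dopamine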
Target sequence (P14416 whole entry, looked up): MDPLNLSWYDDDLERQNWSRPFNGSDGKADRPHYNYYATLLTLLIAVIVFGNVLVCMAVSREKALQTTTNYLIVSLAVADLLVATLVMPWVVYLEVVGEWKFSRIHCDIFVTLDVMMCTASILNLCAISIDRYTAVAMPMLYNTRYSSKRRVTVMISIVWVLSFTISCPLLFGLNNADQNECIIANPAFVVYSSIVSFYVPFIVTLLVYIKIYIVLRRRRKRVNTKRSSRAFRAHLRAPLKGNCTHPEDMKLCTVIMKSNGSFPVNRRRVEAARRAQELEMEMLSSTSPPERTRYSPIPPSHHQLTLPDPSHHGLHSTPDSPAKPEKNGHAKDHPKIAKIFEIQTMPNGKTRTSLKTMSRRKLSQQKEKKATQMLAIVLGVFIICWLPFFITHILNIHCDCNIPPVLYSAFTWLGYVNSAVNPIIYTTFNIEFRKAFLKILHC
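PathHunter D2 cells, attached overnight at 37 deg C, received compound in DMSO plus dopamine at EC20 (50 nM final) for 90 min at 37 deg C. Beta-arrestin recruitment was read as luminescence after 1 h with detection reagent at ambient temperature.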
PINK1 expr mod: A Quantitative High throughput Screen to Identify Chemical Modulators of PINK1 Expression. PINK1 immunofluorescence, high-content cytometry, 24 h. Potency, µM (top dose mostly 76.6 µM), for inactives: top-dose activation (PINK1 increase), most hits filed as activators. actives 0.2% (n = 410,000); active = well fitted activation curve with a large enough effect; inconclusive = small, poorly fitted or top-dose-only effect; inactive = flat fitted curve, though single readings scatter; cell line not stated here;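 further: potency means the concentration at half of the fitted maximal effect; % of control where 0% means no effect; nearly all actives have a fitted effect of over 65% in size; a mitochondrial uncoupler was the plate control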
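Stable cell line, 250 cells/well, 12 h attachment; compounds pinned at 5 concentrations, 24 h; CCCP control. Fixed with nuclear dye, primary antibodies 12 h at 10 degrees C, secondary plus cell stain; laser-scanning cytometer read.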
D2 ag: Beta-Arrestin HTS for Positive Allosteric Modulators of the Human D2 Dopamine Receptor: Agonists; D(2) dopamine receptor (Homo sapiens), P14416; DiscoveRx PathHunter D2 beta-arrestin, luminescence, 90 min; 100% = 57 uM dopamine signal; activation, % (concentration not given with the values); actives 0.084% (n = 360,000); AID 624465, 2012; in the data active = activation above about 40%; inconclusive = about 15% to 40%; inactive = below about 15%; further: compound concentration not given in the record; the text of the record calls up to 30% inactive
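Agonist mode: compounds alone added to overnight-plated D2 PathHunter cells for 90 min at 37 C, with 57 uM final dopamine (EC100) defining full response. Beta-arrestin recruitment detected by chemiluminescent reagent, read after 1 h at ambient temperature.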
TRPML1 ag: qHTS for Agonists of the Human Mucolipin Transient Receptor Potential 1 (TRPML1); Mucolipin-1 (Homo sapiens), Q9GZU1; TRPML1-expressing cells, Ca2+ dye fluorescence, FDSS; host cell line not named in the record; reference of the full effect not given here; activation, % (test concentration not listed); actives 0.12% (n = 410,000); AID 624414, 2012; in the data active = activation above about 50%; inconclusive = about 30% to 50%; inactive = below about 30%; further: 0% is about no effect; the text of the record puts the active cut at 80%
Target sequence (Q9GZU1 whole entry, looked up): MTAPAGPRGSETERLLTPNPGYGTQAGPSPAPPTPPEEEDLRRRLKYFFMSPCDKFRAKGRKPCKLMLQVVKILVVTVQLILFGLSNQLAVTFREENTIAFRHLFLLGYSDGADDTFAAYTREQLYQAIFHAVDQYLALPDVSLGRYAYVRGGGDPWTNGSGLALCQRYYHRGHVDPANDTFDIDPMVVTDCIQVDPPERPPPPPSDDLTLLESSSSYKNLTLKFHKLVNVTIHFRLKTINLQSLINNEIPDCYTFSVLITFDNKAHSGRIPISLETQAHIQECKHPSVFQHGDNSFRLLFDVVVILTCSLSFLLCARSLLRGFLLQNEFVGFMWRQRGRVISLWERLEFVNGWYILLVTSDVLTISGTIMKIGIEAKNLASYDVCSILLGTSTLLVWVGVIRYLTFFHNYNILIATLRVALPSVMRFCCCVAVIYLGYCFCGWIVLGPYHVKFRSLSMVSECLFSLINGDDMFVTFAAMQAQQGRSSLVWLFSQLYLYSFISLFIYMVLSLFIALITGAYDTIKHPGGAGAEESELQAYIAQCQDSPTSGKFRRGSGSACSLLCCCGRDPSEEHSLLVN
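Tetracycline-induced TRPML1-DL cells are seeded and incubated overnight before loading with a no-wash Ca2+ dye and quencher. Agonist activity is taken from the 110 s fluorescence read following compound pin-transfer on an FDSS, before EC80 54-4 challenge.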
CtBP-E1A inh: qHTS Assay for Inhibitors of the CtBP/E1A Interaction; AID 651724, 2012; activity change, % (no concentration beside the values); actives 0.49% (n = 340,000); AlphaScreen GST-E1A/His-CtBP binding, 1536-well; active compounds read low; control for the full effect not named in the record; in the data active means activity change below about -65%; inconclusive means about -30% to -65%; inactive means above about -30%; further: on the % scale 0 is the no-effect control and ±100 the full control effect
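Homogeneous bead-based format: GST-tagged E1A captured on glutathione donor beads, His-tagged CtBP on nickel acceptor beads; compounds precede bead addition by 2 h at 37 °C.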
Six1-Eya2 inh: qHTS Assay for Inhibitors of the Six1/Eya2 Interaction; AlphaScreen GST-Six1/His-Eya2 binding, biochemical; active compounds read low; control for the full effect not named in the record; activity change, % (no concentration beside the values); actives 0.56% (n = 360,000); in the data active = activity change below about -65%; inconclusive = about -30% to -65%; inactive = above about -30%; further: on the % scale 0 is the no-effect control and ±100 the full control effect
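Six1/Eya2 binding was read as AlphaScreen signal after compounds were pinned into GST-Six1 plus His-tagged Eya2 (5X stock 250/500 nM) in pH 8.0 Tris/NaCl/TCEP buffer, beads added, then incubated 1 h, 37 C, dark.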
Numbers without * were called inactive; ? = inconclusive; nt = no result given; & = joins results of further samples; [ ] = another dose, or the depositor's remark.

Codes: A = D2 potentiator; B = PINK1 expr mod; C = D2 ag; D = TRPML1 ag; E = CtBP-E1A inh; F = Six1-Eya2 inh
> CC(=O)Nc1cccc(NC(=O)CSc2ncc(-c3ccccc3)[nH]2)c1
  A: -2.0 | B: -0.3% | C: -2.7 | D: 1.3 | E: nt | F: -1.9

> COc1ccc(NC(=O)Cc2ccc(C)c(C)c2)cc1S(=O)(=O)N1CCCCC1
  A: -11.4 | B: 3.5% | C: -1.4 | D: 0.5 | E: -2.4 | F: -5.9

> CCOC(=O)C1=C(C)NC(=O)NC1c1ccc(NC(C)=O)cc1 (configuration not stated)
  A: -11.1 | B: 0.2%[38.3 µM] | C: -1.5 | D: 1.0 | E: -5.5 | F: -8.4

> CCCN1Cc2cccc(C(=O)N3CCN(c4ccccc4)CC3)c2C1=O
  A: -19.4 | B: 0.1% | C: -5.2 | D: 0.0 | E: 0.9 | F: 2.2

> CCOc1ccc2nc(SCc3ccccc3C#N)sc2c1
  A: -5.8 | B: 3.6% | C: 2.6 | D: 0.6 | E: 3.9 | F: 37.1

> Cc1cc(SCC(=O)OCC(=O)N2CCCC2=O)c(C)cc1Br
  A: 5.3 | B: -0.3% | C: -1.5 | D: 3.6 | E: 18.5 | F: 2.0

> O=C(N/N=C/c1ccsc1)c1ccccn1
  A: -4.9 | B: -0.6% | C: -4.6 | D: 0.2 | E: -10.7 | F: -17.8

> CCOC(=O)c1ccccc1NC(=O)COC(=O)CSc1ccccc1
  A: 12.1 | B: 3.2% | C: -1.3 | D: 2.4 | E: 0.0 | F: 43.0

> C[C@H](CO)N1C[C@H](C)[C@@H](CN(C)Cc2cccc(C(F)(F)F)c2)OCc2cnnn2CCCC1=O
  A: 1.9 | B: 0.6% | C: -2.7 | D: -0.2 | E: -0.1 | F: 4.7

> CCCCC(=O)Nc1ccc(NC(=O)c2ccco2)cn1
  A: 0.2 | B: -0.7% | C: 1.8 | D: 0.5 | E: -3.1 | F: 8.8

> CC1(C)N=C(N)N=C(N)N1c1ccc(CCCCc2ccccc2)cc1
  A: -15.8 | B: -1.8% | C: 3.5 | D: -0.5 | E: 1.8 | F: 1.7

> Cc1csc(NC(=O)c2cc[n+]([O-])cc2)n1
  A: -8.8 | B: -1.4% | C: -5.0 | D: -0.3 | E: nt | F: -12.6

> COc1ccc2[nH]c3c(c2c1)CCN1C(=O)N([C@@H](C)C(=O)NC2CC2)C(=O)[C@]31C
  A: 0.2 | B: 2.2% | C: 8.1 | D: nt | E: -1.1 | F: -8.1

> CCN(C(=O)CSc1nnc2nc(C)cc(C)n12)c1ccccc1
  A: -5.1 | B: -0.4% | C: -6.8 | D: -0.3 | E: -18.7 | F: 2.6

> C=CCn1c(-c2cccc(S(=O)(=O)N(CC)CC)c2)n[nH]c1=S
  A: -11.7 | B: 2.9% | C: -1.6 | D: -0.3 | E: 6.5 | F: 0.0

> COc1ccc(-n2nc(C(=O)NCC(=O)Nc3cc(Cl)c(OC)cc3OC)c3ccccc3c2=O)cc1
  A: -4.8 | B: 4.1% | C: -0.8 | D: -1.0 | E: 0.0 | F: 15.2

> COc1ccc(CCC(=O)NNC(=O)Nc2ccc(OC)c(OC)c2)cc1
  A: 5.4 | B: -1.0% | C: 3.9 | D: 0.0 | E: 6.2 | F: 10.0

> CC1(C(=O)NS(=O)(=O)c2cccc(Cl)c2)CCN1C(=O)Cc1cccs1 (configuration not stated)
  A: -1.3 | B: 0.0% | C: -3.3 | D: 0.4 | E: 0.3 | F: 2.3

> COc1cc(-c2c(-c3ccc4c(c3)OCO4)noc2-c2ccsc2)ccc1F
  A: -7.4 | B: 0.1% | C: -1.3 | D: 1.0&-0.1 | E: 3.1 | F: -4.7

> NC(CC(=O)OC1CCCCC1)C(=O)OC1CCCCC1 (configuration not stated)
  A: -10.9 | B: -1.7% | C: 0.8 | D: -1.0 | E: 10.5 | F: 2.3

> Cc1ccc(-c2noc(C3CCCN(C(=O)c4cccc([N+](=O)[O-])c4)C3)n2)o1 (configuration not stated)
  A: 4.2 | B: -1.6% | C: -1.0 | D: 0.0 | E: 16.6 | F: 4.9

> Cc1ccc(CCN2CC(C(=O)NCCN(C)C)CC2=O)cc1 (configuration not stated)
  A: -2.4 | B: 3.9% | C: -1.0 | D: 0.0 | E: 2.6 | F: 6.1

> COC(=O)c1ccccc1NC(=S)N1CCN(c2ccccc2)CC1
  A: 1.9 | B: -1.9% | C: ? | D: 1.8 | E: -12.3 | F: -10.3

> Cc1ccc(N2CC(C(=O)Nc3ccccc3OC(F)F)CC2=O)cc1 (configuration not stated)
  A: -0.9 | B: 0.2% | C: -4.3 | D: -0.3 | E: 2.6 | F: 6.7

> c1ccc(SCc2nc3ccccc3[nH]2)nc1
  A: -23.2 | B: -0.9% | C: -0.3 | D: -0.1 | E: -13.0 | F: -7.5

Compound profiles, as listed above.
Cc1ccc(CCN2CC(C(=O)NCCN(C)C)CC2=O)cc1 (configuration not stated) across the screens: D2 potentiator: -2.4; PINK1 expr mod: 3.9%; D2 ag: -1.0; TRPML1 ag: 0.0; CtBP-E1A inh: 2.6; Six1-Eya2 inh: 6.1
O=C(N/N=C/c1ccsc1)c1ccccn1 across the screens: D2 potentiator: -4.9; PINK1 expr mod: -0.6%; D2 ag: -4.6; TRPML1 ag: 0.2; CtBP-E1A inh: -10.7; Six1-Eya2 inh: -17.8

Continued:
Codes: A = D2 potentiator; B = PINK1 expr mod; C = D2 ag; D = TRPML1 ag; E = CtBP-E1A inh; F = Six1-Eya2 inh
> CNC(=S)N(Cc1ccc(Cl)cc1)Cc1cccs1
  A: -7.9 | B: 1.0% | C: -0.8 | D: 0.3 | E: 15.6 | F: 6.6

> Cc1cc(Nc2cccc(C(=O)O)c2)n2ncnc2n1
  A: 0.1 | B: 0.1% | C: 5.3 | D: 0.2 | E: 7.4 | F: 3.4

> Cn1c(NC(=O)C2c3ccccc3Oc3ccccc32)cc(=O)n(C)c1=O
  A: -9.1 | B: -2.6% | C: -2.7 | D: 0.3 | E: -9.5 | F: 1.7

> O=C(N/C=N/O)C(c1ccccc1)c1ncc(C(F)(F)F)cc1Cl (configuration not stated)
  A: 4.2 | B: 3.9% | C: 0.9 | D: 0.8 | E: 7.3 | F: 2.9

> CC(NS(=O)(=O)c1ccccc1)C(=O)NC1CCCC1 (configuration not stated)
  A: 5.5 | B: 0.2% | C: -1.5 | D: 0.1 | E: 6.3 | F: 3.7

> CN(c1ccc(C(=O)Nc2ccccc2C(=O)N2CCOCC2)cc1)S(C)(=O)=O
  A: -8.6 | B: 1.4% | C: 0.6 | D: 0.8 | E: -3.5 | F: 11.8

> CN(C)c1cccc(C(=O)OCCNC(=O)c2cccc(S(=O)(=O)N3CCOCC3)c2)c1
  A: -0.1 | B: 0.4% | C: 0.9 | D: 0.9 | E: -20.8 | F: -2.2

> O=C(CC(=O)NCc1ccccc1)NCc1ccccc1
  A: 0.5 | B: 1.2% | C: -1.3 | D: 0.0 | E: 1.4 | F: 9.5

> CC(C)(C)CN1C(=O)C(=O)NC[C@@H]1Cc1ccc(O)cc1
  A: -3.6 | B: 1.6% | C: -6.8 | D: -0.1 | E: 5.7 | F: -1.9

> O=C1CCC(C(=O)N2CCCCO2)CN1CCc1ccccc1 (configuration not stated)
  A: -1.7 | B: -0.2% | C: 1.9 | D: 0.0 | E: 1.1 | F: -0.1

> CCCCn1nnnc1C(c1ccccc1OC(F)(F)F)N1CCN(C/C=C/c2ccccc2)CC1 (configuration not stated)
  A: -15.6 | B: -0.2% | C: -1.7 | D: ? | E: -9.8 | F: -11.8

> O=S(=O)(c1ccc(F)cc1)c1nc(-c2ccco2)oc1Nc1ccc(F)cc1
  A: 0.1 | B: 1.8% | C: 0.6 | D: 2.4 | E: -11.9 | F: ?

> CCOC(=O)N1CCN(CC(=O)c2ccc(O)c(C)c2O)CC1
  A: -3.1 | B: 0.8% | C: -1.9 | D: -0.2 | E: nt | F: 3.5

> COc1c(Cl)cccc1-c1cn2ccccc2n1
  A: -0.7 | B: 0.9% | C: 7.8 | D: 0.0 | E: -24.5 | F: -5.9

> O=C(Cn1nc(C(=O)O)c2ccccc2c1=O)Nc1ccc(Cl)c(S(=O)(=O)N2CCOCC2)c1
  A: -21.8 | B: 1.5% | C: 0.4 | D: 1.8 | E: -12.0 | F: -20.8

> COc1ccc(CC(=O)N/N=C/c2ccc(C)s2)cc1
  A: 1.8 | B: -0.1% | C: -0.8 | D: 0.0 | E: 2.6 | F: 0.0

> Cc1cc(N)n(-c2ccc(S(=O)(=O)N3CCCC3)cc2[N+](=O)[O-])n1
  A: 3.0 | B: 0.6% | C: 4.4 | D: 0.9 | E: -0.9 | F: 6.5

> COc1ccc(C2Sc3nncn3N2Cc2ccc(C#N)cc2)cc1 (configuration not stated)
  A: -5.8 | B: 1.0% | C: -1.7 | D: 0.8 | E: -0.5 | F: 0.2

> CNC(=O)C[C@H]1C(=O)N(c2ccccc2)C[C@@H]1C
  A: 1.4 | B: -0.1% | C: -8.5 | D: -0.5 | E: 4.7 | F: 2.6

> COc1ccc(-n2nc3c(c2NC(=O)c2ccccc2S(=O)(=O)C(F)F)CS(=O)(=O)C3)cc1
  A: -19.3 | B: 0.9% | C: -2.6 | D: -0.8 | E: -0.3 | F: -11.2

> CC(=O)Nc1c(O)nc(SCC(=O)Nc2nnc(CC(C)C)s2)[nH]c1=O
  A: 13.3 | B: -0.2% | C: -3.4 | D: -0.2 | E: -0.3 | F: 3.0

> CCOC(=O)Cc1cc(=O)n2[nH]cc(-c3cccc(Br)c3)c2n1
  A: -2.2 | B: 1.1% | C: -2.7 | D: 0.7 | E: -1.0 | F: -10.3

> CC(C)c1ccc(NC(=O)COC(=O)c2cc(=O)[nH]c3ccccc23)cc1
  A: -2.3 | B: 3.4% | C: -0.8 | D: 1.0 | E: 4.2 | F: -2.4

> CCn1cc(/C=C(\NC(=O)c2ccccc2F)C(=O)N2CCOCC2)c2ccccc21
  A: -3.0 | B: 0.8% | C: -3.1 | D: 0.3 | E: -3.3 | F: 0.8

> COc1ccc(C=NNc2ccc([N+](=O)[O-])cn2)cc1
  A: -6.2 | B: 11.2µM* | C: -1.7 | D: 0.4 | E: -2.1 | F: 0.7

> O=C(N/N=C/c1ccncc1)c1ccc(OCc2ccccc2)cc1
  A: -4.6 | B: -1.2% | C: -0.9 | D: 2.7 | E: -15.7 | F: 0.0

> COc1ccc(N2C(=NC(=O)CCCc3ccccc3)SC3CS(=O)(=O)CC32)cc1 (configuration not stated)
  A: -5.3 | B: 0.9% | C: 5.9 | D: 0.9 | E: -18.0 | F: 8.7

> Cc1cccc(NC(=O)C(=O)NCCCN2CCOCC2)c1
  A: -3.7 | B: -0.9%&-2.5% | C: -1.7 | D: 0.9&1.8 | E: -1.4 | F: -0.1

> CCOc1ccccc1N
  A: -3.7 | B: -0.1% | C: 1.8 | D: -0.8 | E: 2.7 | F: -3.9

> O=C(Nc1cccc(NC(=O)c2ccccc2)n1)c1ccccc1
  A: -2.0 | B: -1.8% | C: -2.7 | D: 0.3 | E: -4.1 | F: -3.0
